# Bioassay records from PubChem.
# c-Myc SMM: binds human c-Myc on microarray; calls only; 17,000 compounds, 1.5% hits; P01106; small molecule microarray, His-c-Myc binding, anti-His fluorescence; AID 624141;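 active means spot fluorescence over background with P-value below 7% in all four replicate spots, showing protein binding; compounds were printed on slides so no solution concentration is given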;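 further: score is binary with 100 for all four spots passing and 0 otherwise; about 2 pmol printed per array spot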
# STAT3 SMM: binders of human STAT3 | P40763 | Small molecule microarray, His-STAT3 binding, anti-His fluorescence | calls only | 17,000 compounds, 0.2% hits;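 active means compounds whose four printed spots each show fluorescence over background unusually high for their array block, chance value under 7%; compounds were printed on slides so no solution concentration is given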;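 further: about 2 pmol printed per array spot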
# Target sequence (P40763 whole entry, looked up): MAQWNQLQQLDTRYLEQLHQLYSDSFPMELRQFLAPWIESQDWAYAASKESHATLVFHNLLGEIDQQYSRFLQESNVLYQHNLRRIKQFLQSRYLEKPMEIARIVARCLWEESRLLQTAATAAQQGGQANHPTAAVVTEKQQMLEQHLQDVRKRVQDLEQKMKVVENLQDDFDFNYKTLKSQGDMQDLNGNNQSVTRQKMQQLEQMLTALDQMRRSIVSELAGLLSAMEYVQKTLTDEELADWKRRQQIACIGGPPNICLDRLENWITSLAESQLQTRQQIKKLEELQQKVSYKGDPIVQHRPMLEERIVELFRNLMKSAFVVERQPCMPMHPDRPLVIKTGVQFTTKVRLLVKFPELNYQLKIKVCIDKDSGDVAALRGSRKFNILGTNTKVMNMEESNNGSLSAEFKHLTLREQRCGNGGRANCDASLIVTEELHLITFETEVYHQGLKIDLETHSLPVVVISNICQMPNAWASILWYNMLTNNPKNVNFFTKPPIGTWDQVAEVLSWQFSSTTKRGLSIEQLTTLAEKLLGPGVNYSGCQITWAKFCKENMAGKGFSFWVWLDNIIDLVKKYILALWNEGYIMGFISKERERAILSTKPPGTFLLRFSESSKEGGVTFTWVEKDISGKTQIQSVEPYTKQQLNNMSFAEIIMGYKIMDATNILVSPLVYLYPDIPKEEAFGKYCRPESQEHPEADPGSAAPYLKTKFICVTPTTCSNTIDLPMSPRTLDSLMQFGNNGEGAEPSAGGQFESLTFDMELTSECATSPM
# ID4 binder: ID4 (human) binding. calls only. 31,000 compounds, 1.2% hits. small molecule microarray, Flag-ID4 binding, fluorescence F/B. P47928. AID 624137;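 active means spot signal over background at p below 0.07 in all four prints; compounds were printed on slides so no solution concentration is given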;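 further: a binder raises fluorescence above local background on the spot; about 2 pmol printed per array spot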
# Target sequence (P47928 whole entry, looked up): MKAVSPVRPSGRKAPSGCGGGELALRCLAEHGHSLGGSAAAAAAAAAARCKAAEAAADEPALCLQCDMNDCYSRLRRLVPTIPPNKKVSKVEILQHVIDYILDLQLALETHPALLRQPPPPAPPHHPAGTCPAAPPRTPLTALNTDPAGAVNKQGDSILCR
# mut p53 SMM: mutant p53 (human) binding | small molecule microarray binding, anti-GST fluorescence | calls only | 17,000 compounds, 0.4% hits | AID 624136;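 active means compounds whose four printed spots each glow above background more than chance allows, each with a p-value under 7%; compounds were printed on slides so no solution concentration is given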;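 further: about 2 pmol printed per array spot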
# Calls only; i = inactive; nt = not tested or not shown; + = active, no number. This is a subset; rates above refer to the full screens.
SMILES,c-Myc SMM,STAT3 SMM,ID4 binder,mut p53 SMM
COc1ccc(CN(C)C[C@H]2Oc3ccc(NS(=O)(=O)c4ccc(Cl)cc4)cc3C(=O)N([C@@H](C)CO)C[C@@H]2C)cc1,i,i,i,i
C[C@H](CO)N1C[C@H](C)[C@H](CN(C)S(=O)(=O)c2cccs2)Oc2ccc(NC(=O)c3ccncc3)cc2CC1=O,i,i,i,i
CC1=CCC(C(=O)O)C(C(=O)Nc2cccnc2)C1 (stereo unspecified),i,i,i,i
COc1ccc(NC(=O)CN(C2CCCCC2)S(=O)(=O)c2ccc(C)cc2)cc1Cl,i,i,i,i
C[C@@H]1CN([C@H](C)CO)C(=O)Cc2cc(NC(=O)C3CC3)ccc2O[C@@H]1CN(C)C(=O)Nc1ccc(C(F)(F)F)cc1,i,i,i,i
C[C@H]1CCCCO[C@@H](CN(C)S(=O)(=O)c2ccccc2)[C@@H](C)CN([C@@H](C)CO)C(=O)c2cc(NC(=O)CCC(F)(F)F)ccc2O1,i,i,i,i
C[C@H]1CN([C@@H](C)CO)C(=O)c2cc(N(C)C)ccc2O[C@H]1CN(C)Cc1ccccc1,i,i,i,i
C[C@@H]1CN([C@@H](C)CO)C(=O)c2cc(NS(C)(=O)=O)ccc2O[C@H]1CN(C)C(=O)NC1CCCCC1,i,i,i,i
Cc1noc(C)c1S(=O)(=O)Nc1ccc2c(c1)CC(=O)N([C@@H](C)CO)C[C@@H](C)[C@H](CN(C)C(=O)Nc1ccccc1)O2,i,i,i,i
O=C(CN1C(=O)c2ccccc2S1(=O)=O)Nc1c(F)cccc1F,i,i,i,i
COc1ccc(CN(C)C[C@@H]2Oc3ccc(NC(=O)Nc4ccc(OC)cc4)cc3C(=O)N([C@@H](C)CO)C[C@H]2C)cc1,i,i,i,i
C[C@H](CO)N1C[C@H](C)[C@@H](CN(C)Cc2ccncc2)OCCCC[C@H](C)Oc2ccc(NS(=O)(=O)c3ccccc3)cc2C1=O,i,i,i,i
CC(C)NC(=O)N(C)C[C@H]1OCCCC[C@@H](C)Oc2ccc(NS(C)(=O)=O)cc2C(=O)N([C@H](C)CO)C[C@H]1C,i,i,i,i
CC(=O)C1=C(c2ccccc2)NC(=S)NC1c1cc(Cl)ccc1OCC(=O)O (stereo unspecified),i,i,i,i
C[C@H](CO)N1C[C@H](C)[C@@H](CN(C)Cc2ccc(Cl)c(Cl)c2)Oc2ccc(NC(=O)C3CC3)cc2C1=O,i,i,i,i
C[C@@H]1CN([C@H](C)CO)C(=O)c2cc(NC(=O)NC3CCCCC3)ccc2O[C@H]1CN(C)C(=O)Nc1ccccc1,i,i,i,i
Cc1ccc(S(=O)(=O)NCc2cccnc2)cc1,i,i,i,i
CC(C)NC(=O)Nc1ccc2c(c1)C(=O)N([C@@H](C)CO)C[C@@H](C)[C@H](CN(C)C(=O)CCCN(C)C)OCCCC[C@H](C)O2,i,i,i,i
CCO[C@H]1OC(C(=O)O)=C[C@@H](c2cn(C(C)=O)c3ccccc23)[C@@H]1CCCO,i,i,i,i
C[C@@H]1CCCCO[C@H](CN(C)C(=O)c2ccccc2)[C@@H](C)CN([C@@H](C)CO)C(=O)c2cc(NC(=O)Nc3ccc4c(c3)OCO4)ccc2O1,i,i,i,i
C[C@@H]1CCCCO[C@@H](CN(C)C(=O)C2CCCCC2)[C@H](C)CN([C@@H](C)CO)C(=O)c2cc(NC(=O)c3ccncc3)ccc2O1,i,i,i,i
C[C@@H]1CN([C@H](C)CO)C(=O)c2cccc(NS(=O)(=O)c3ccc(Cl)cc3)c2O[C@H]1CN(C)S(=O)(=O)c1cn(C)cn1,i,i,i,i
c1ccc(-c2cn3c4ccccc4n(CCN4CCOCC4)c3n2)cc1,+,i,i,i
C[C@@H]1CCCCO[C@H](CN(C)C(=O)C2CCCCC2)[C@H](C)CN([C@@H](C)CO)C(=O)c2cc(N(C)C)ccc2O1,i,i,i,i

# Four entries from above, with each value named.
compound: Cc1ccc(S(=O)(=O)NCc2cccnc2)cc1
  c-Myc SMM: i; STAT3 SMM: i; ID4 binder: i; mut p53 SMM: i
compound: C[C@@H]1CCCCO[C@@H](CN(C)C(=O)C2CCCCC2)[C@H](C)CN([C@@H](C)CO)C(=O)c2cc(NC(=O)c3ccncc3)ccc2O1
  c-Myc SMM: i; STAT3 SMM: i; ID4 binder: i; mut p53 SMM: i
compound: C[C@@H]1CCCCO[C@H](CN(C)C(=O)C2CCCCC2)[C@H](C)CN([C@@H](C)CO)C(=O)c2cc(N(C)C)ccc2O1
  c-Myc SMM: i; STAT3 SMM: i; ID4 binder: i; mut p53 SMM: i
compound: CC(C)NC(=O)N(C)C[C@H]1OCCCC[C@@H](C)Oc2ccc(NS(C)(=O)=O)cc2C(=O)N([C@H](C)CO)C[C@H]1C
  c-Myc SMM: i; STAT3 SMM: i; ID4 binder: i; mut p53 SMM: i

# (next part)
SMILES,c-Myc SMM,STAT3 SMM,ID4 binder,mut p53 SMM
COc1cc(OC)cc(C(=O)Nc2ccc(S(=O)(=O)Nc3ncccn3)cc2)c1,i,i,i,i
C[C@@H]1CN([C@@H](C)CO)C(=O)c2cc(N(C)C)ccc2O[C@@H](C)CCCCO[C@H]1CN(C)C(=O)CCC(F)(F)F,i,i,i,i
CNC[C@H]1OCCCC[C@@H](C)Oc2ccc(NS(=O)(=O)c3ccccc3)cc2C(=O)N([C@@H](C)CO)C[C@H]1C,i,i,i,i
C[C@@H]1CN([C@H](C)CO)C(=O)c2cccc(NS(=O)(=O)c3cccs3)c2O[C@@H]1CN(C)C(=O)NC1CCCCC1,i,i,i,i
Cc1noc(C)c1NC(=O)N(C)C[C@@H]1OCCCC[C@@H](C)Oc2ccc(NC(=O)c3ccncc3)cc2C(=O)N([C@H](C)CO)C[C@@H]1C,i,i,i,i
O=C(NCCNC(=O)c1ccccc1[N+](=O)[O-])c1ccc(F)cc1,i,i,i,i
COc1ccc(S(=O)(=O)N(C)C[C@H]2Oc3c(NC(=O)c4ccncc4)cccc3C(=O)N([C@H](C)CO)C[C@H]2C)cc1,i,i,i,i
COc1ccc(S(=O)(=O)N(C)C[C@H]2Oc3ccc(NS(=O)(=O)c4ccc(Cl)cc4)cc3C(=O)N([C@@H](C)CO)C[C@H]2C)cc1,i,i,i,i
COc1ccc(CN(C)C[C@@H]2Oc3ccc(NC(=O)Cn4cnnn4)cc3CC(=O)N([C@H](C)CO)C[C@H]2C)cc1,i,i,i,i
CN1CCN(C(=O)C2=C[C@H](C3CC3)C[C@H](OCCCCO)O2)CC1,i,i,i,i
O=C(N1CCOCC1)[C@]1(CCS(=O)(=O)c2ccccc2)N=C(c2ccc(OCCCO)cc2)O[C@@H]1c1ccccc1,i,i,nt,i
C[C@@H]1CN([C@H](C)CO)C(=O)CCCn2cc(nn2)CO[C@@H]1CN(C)S(=O)(=O)c1ccc(Cl)cc1,i,i,i,i
C[C@H]1CN([C@@H](C)CO)C(=O)c2cccc(NS(=O)(=O)c3ccc(Cl)cc3)c2O[C@H]1CN(C)Cc1ccncc1,i,i,i,i
CCOc1ccc(NC(=O)C(C)Sc2nc3ccccc3c(=O)n2-c2cccc(C)c2)cc1 (stereo unspecified),i,i,i,i
CCO[C@H]1OC(C(=O)N2CCN(Cc3ccc4c(c3)OCO4)CC2)=C[C@@H](c2ccc(C(F)(F)F)cc2)[C@@H]1CCCO,i,i,i,i
O=C1c2ccccc2C(=O)N1Cc1cc(NS(=O)(=O)c2ccccc2)ccc1Cl,i,i,i,i
COc1cccc(C(=O)Nc2ccc(NC(=O)C3CCCCC3C(=O)O)cc2)c1 (stereo unspecified),i,i,+,i
Cc1noc(C)c1NC(=O)N(C)C[C@@H]1Oc2ccc(NC(=O)NC(C)C)cc2CC(=O)N([C@H](C)CO)C[C@H]1C,i,i,i,i
O=C(Nc1cccc(S(=O)(=O)N2CCCC2)c1)c1cc(-n2cnnc2)ccc1Cl,i,i,i,i
Nc1nnc(SCC(=O)Nc2ccccc2C(=O)c2ccccc2)s1,i,i,i,i
COc1ccc(S(=O)(=O)N(C)C[C@H]2Oc3ccc(NC(=O)Cn4cnnn4)cc3C(=O)N([C@@H](C)CO)C[C@H]2C)cc1,i,i,i,i
CC(C)NC(=O)N(C)C[C@H]1Oc2ccc(NC(=O)CCN3CCOCC3)cc2C(=O)N([C@H](C)CO)C[C@@H]1C,i,i,i,i
C[C@@H]1CN([C@@H](C)CO)C(=O)Cc2cc(NC(=O)C3CC3)ccc2O[C@@H]1CN(C)C(=O)Nc1ccc(C(F)(F)F)cc1,i,i,i,i
COc1ccc(NC(=O)Nc2ccc3c(c2)C(=O)N([C@H](C)CO)C[C@H](C)[C@H](CN(C)Cc2ccc(C(=O)O)cc2)O3)cc1,i,i,i,i
COc1cc2c(c(OC)c1OC)C[C@H]1COC(=O)[C@@H]1Cc1c-2cc(OC)c(OC)c1OC,i,i,i,i
C[C@@H]1CN([C@H](C)CO)C(=O)Cc2cc(NS(=O)(=O)c3ccc(Cl)cc3)ccc2O[C@H]1CN(C)S(=O)(=O)c1ccc(Cl)cc1,i,i,nt,i
COc1ccc(NC(=O)Nc2ccc3c(c2)C(=O)N([C@@H](C)CO)C[C@H](C)[C@@H](CN(C)Cc2ccc(C(=O)O)cc2)O3)cc1,i,i,i,i
O=c1c(O)c(-c2ccccc2)oc2cc(O)cc(O)c12,i,i,nt,i
CN1CCN(C(=O)C2=C[C@@H](c3ccc4c(c3)OCO4)C[C@@H](OCCCCO)O2)CC1,i,i,+,i
C[C@@H]1CCCCO[C@@H](CN(C)C(=O)Nc2ccccc2)[C@H](C)CN([C@@H](C)CO)C(=O)c2cc(NC(=O)Cc3ccccc3)ccc2O1,i,i,i,i
CC(C)NC(=O)N(C)C[C@H]1OCCCC[C@H](C)Oc2ccc(NS(C)(=O)=O)cc2C(=O)N([C@@H](C)CO)C[C@@H]1C,i,i,i,i
C[C@H]1CN([C@@H](C)CO)C(=O)Cc2cc(NC(=O)c3ccncc3)ccc2O[C@H]1CN(C)C(=O)NC1CCCCC1,i,i,i,i
C[C@@H]1O[C@@H](OC[C@H]2O[C@@H](OCc3ccccc3)[C@H](O)[C@@H](O)[C@@H]2O)[C@H](O)[C@H](O)[C@H]1O,i,i,nt,i
C[C@]12CCC(=O)C=C1CC[C@@H]1[C@@H]2C(=O)C[C@@]2(C)[C@H]1CC[C@]2(O)C(=O)CO,i,i,i,i
C[C@@H]1CN([C@H](C)CO)C(=O)Cc2cc(NS(C)(=O)=O)ccc2O[C@H]1CN(C)C(=O)NC1CCCCC1,i,i,i,i
C[C@H]1CCCCO[C@@H](CN(C)C(=O)c2ccncc2)[C@@H](C)CN([C@@H](C)CO)C(=O)c2cc(NS(=O)(=O)c3ccccc3)ccc2O1,i,i,+,i
CC(=O)c1cccc(NC(=O)COc2ccccc2C(=O)Nc2ccccc2C#N)c1,i,i,i,i
CNC[C@H]1Oc2c(NS(=O)(=O)c3c(C)noc3C)cccc2C(=O)N([C@H](C)CO)C[C@H]1C,i,i,i,i
C[C@H](CO)N1C[C@H](C)[C@H](CN(C)C(=O)Nc2ccc3c(c2)OCO3)Oc2ccc(NS(=O)(=O)c3cccs3)cc2C1=O,i,i,i,i
Cc1noc(C)c1S(=O)(=O)Nc1cccc2c1O[C@@H](CN(C)C(=O)Nc1cccc3ccccc13)[C@@H](C)CN([C@H](C)CO)C2=O,i,i,i,i
COC(=O)c1ccccc1NC(=O)COc1cc(C)c(Br)cc1C,i,i,i,i
CC(C)NC(=O)Nc1ccc2c(c1)CC(=O)N([C@@H](C)CO)C[C@@H](C)[C@H](CN(C)Cc1ccc(Cl)c(Cl)c1)O2,i,i,nt,i
COc1ccc(NC(=O)C(=O)NCC(=O)Nc2ccc(C)cc2)cc1,i,i,i,i
COc1cc(C2c3c(oc4ccc(Cl)cc4c3=O)C(=O)N2Cc2ccco2)cc(Br)c1O (stereo unspecified),i,i,i,i
C[C@H](CO)N1C[C@H](C)[C@@H](CN(C)C(=O)c2ccccc2)OCCCC[C@H](C)Oc2ccc(NS(=O)(=O)c3ccccc3)cc2C1=O,i,i,i,i
C[C@H]1CN([C@@H](C)CO)C(=O)c2cccc(N(C)C)c2O[C@H]1CN(C)C(=O)NC1CCCCC1,i,i,i,i
C[C@@H]1CN([C@@H](C)CO)C(=O)CCCn2nncc2CO[C@H]1CN(C)Cc1ccc(Oc2ccccc2)cc1,i,i,i,i
Cc1ccc2nc(SCC(=O)Nc3ccc4c(c3)OCCO4)[nH]c2c1,i,i,i,i
O=C(CSc1nnc(-c2ccco2)o1)Nc1cccc(Cl)c1,i,i,i,i
COc1ccc(S(=O)(=O)N(C)C[C@H]2Oc3c(NC(=O)Nc4c(C)noc4C)cccc3C(=O)N([C@H](C)CO)C[C@@H]2C)cc1,i,i,i,i
C[C@@H]1CN([C@H](C)CO)C(=O)Cc2cc(NS(C)(=O)=O)ccc2O[C@@H]1CN(C)Cc1ccc(C(=O)O)cc1,i,i,nt,i
CNC[C@@H]1Oc2ncc(C#Cc3ccccc3)cc2C(=O)N([C@H](C)CO)C[C@@H]1C,+,i,i,i
COc1ccc(S(=O)(=O)Nc2cccc3c2O[C@@H](CN(C)S(=O)(=O)c2cn(C)cn2)[C@H](C)CN([C@H](C)CO)C3=O)cc1,i,i,i,i
C[C@@H](NC(=O)/C(C#N)=C\c1ccc(O)c(O)c1)c1ccccc1,i,i,i,i
